# Vif TR-FRET – HIV-1 Vif–A3G interaction blockers – biochemical, TR-FRET, GST-Vif 1-94, biotin-A3G peptide, dose response retest, primary screen (AID 1117319). hit rate 0.57% among 260,000. TR-FRET GST-Vif / biotin-A3G peptide binding; higher % means a stronger effect; test concentration not given here; strong numbers were not always called active. inhibition, %; hits with a dose series show IC50 in µM;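 active means above the screen mean plus three standard deviations and confirmed in dose response; inconclusive means results disagree or hit not tested in dose response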;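 further: Vif residues 1-94 fused to GST binding biotinylated APOBEC3G peptide 110-148; 0% = full assay without inhibitor and 100% = GST in place of GST-Vif; retest series ran down from 100 µM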
# Calb FLC – C. albicans growth modulation with fluconazole. C. albicans CaCi-2 (fluconazole-resistant clinical isolate) + fluconazole, Alamar Blue growth, 48 h. growth inhibition, % (concentration not given with the values). hit rate 0.57% among 300,000. AID 1979;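 active means most replicates above 75%; inconclusive means exactly half above 75%; inactive means most below 75%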;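 further: all wells also contain fluconazole at 8 µg/ml as a sub-toxic cotreatment; 0% = median of DMSO wells and 100% = median of geldanamycin control wells; wells of about 8 µL received 7.5 nL stock; the first replicate is given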
# HNF4A DNA FP – change in binding of human HNF4 alpha to DNA; P41235; HNF4a-FITC DNA binding, fluorescence polarization, 1 h; activity change, % at 10 µM; hit rate 0.3% among 360,000; AID 1224865; in the data active means activity change above about 30%, passing the limit was not always enough;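 further: controls were the assay level and a saturating level of protein; the project sought stronger binding though the title names inhibitors; some compounds called inactive have numbers as strong as hits; positive values seem to mean higher polarization but the record does not say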
# Beta2AR agonist – activates human beta-2 adrenergic receptor causing internalization. response, % (test concentration not listed). P07550. Am2.2-beta2AR cells, FAP receptor internalization, flow cytometry; reference of the scale not given here. hit rate 0.43% among 340,000;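 active means response above a set limit, near 3 SD of response in nonfluorescent compounds, cut at about 42% in these data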;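 further: stock transfer was 100 nL into about 11 µL; a reference agonist was the positive control; negative values mostly stem from fluorescent compounds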
# RanGTP-Impb inh – inhibitors of RanGTP-importin-beta interaction, primary screen, biochemical, FRET, CFP-Ran, YFP-importin-beta, homogeneous. cell-free CFP-Ran/YFP-importin-beta FRET ratio. inhibition, % (test concentration not listed). hit rate 1.1% among 300,000. AID 2216;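 active means most replicates above 15%; inconclusive means exactly half above 15%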;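 further: 0% = DMSO wells and 100% = Ran loaded with GDP instead of GTP; wells of about 40 µL received 100 nL stock; the first replicate is given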
# LANA-H2A inh – blocks KSHV LANA binding to histone H2A/H2B; cell-free LANA-H2A/H2B peptide, fluorescence polarization; inhibition, % (concentration not given with the values); hit rate 0.6% among 320,000; in the data active means inhibition mostly above about 10%, no sharp cut-off; inactive means mostly below about 6.7%;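 further: stock transfer was 7.5 nL into about 10 µL; 0% = median of vehicle wells and 100% = median of positive control wells; one replicate is shown; the record names a cut of 25% in any replicate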
# Target sequence (Q9QR71 whole entry, looked up): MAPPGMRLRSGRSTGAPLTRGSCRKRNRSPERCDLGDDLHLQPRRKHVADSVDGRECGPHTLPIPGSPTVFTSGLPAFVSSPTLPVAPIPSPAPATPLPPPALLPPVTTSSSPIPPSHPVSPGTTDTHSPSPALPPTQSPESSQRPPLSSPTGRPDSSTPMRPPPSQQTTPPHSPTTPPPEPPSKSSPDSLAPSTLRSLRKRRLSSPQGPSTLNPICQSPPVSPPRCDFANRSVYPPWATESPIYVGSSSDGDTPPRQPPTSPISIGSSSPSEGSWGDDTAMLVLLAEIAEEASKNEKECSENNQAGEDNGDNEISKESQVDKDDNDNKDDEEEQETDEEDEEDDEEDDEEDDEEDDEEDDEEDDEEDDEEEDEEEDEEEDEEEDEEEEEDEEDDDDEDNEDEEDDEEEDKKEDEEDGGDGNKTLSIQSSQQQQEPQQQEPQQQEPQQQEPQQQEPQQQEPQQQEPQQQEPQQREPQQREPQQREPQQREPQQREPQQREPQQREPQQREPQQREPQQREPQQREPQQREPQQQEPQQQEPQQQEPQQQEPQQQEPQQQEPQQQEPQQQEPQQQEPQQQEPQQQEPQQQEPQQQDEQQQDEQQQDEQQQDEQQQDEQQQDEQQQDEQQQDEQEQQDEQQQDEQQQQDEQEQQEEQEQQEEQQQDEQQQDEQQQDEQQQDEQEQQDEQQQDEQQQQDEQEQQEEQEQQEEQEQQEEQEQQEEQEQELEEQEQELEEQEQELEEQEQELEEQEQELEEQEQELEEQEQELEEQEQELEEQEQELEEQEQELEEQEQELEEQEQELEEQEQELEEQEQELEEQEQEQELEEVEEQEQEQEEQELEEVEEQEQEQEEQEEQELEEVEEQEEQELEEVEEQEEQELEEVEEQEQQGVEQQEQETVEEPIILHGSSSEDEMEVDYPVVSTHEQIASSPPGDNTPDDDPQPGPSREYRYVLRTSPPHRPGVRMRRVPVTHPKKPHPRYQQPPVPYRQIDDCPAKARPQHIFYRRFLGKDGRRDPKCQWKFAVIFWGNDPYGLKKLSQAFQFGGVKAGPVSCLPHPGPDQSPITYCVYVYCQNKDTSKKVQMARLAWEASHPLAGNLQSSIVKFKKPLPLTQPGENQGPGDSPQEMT
# ALR H2O2 inh – human ALR oxidase inhibition via reduced H2O2; P55789; purified ALR, DTT oxidation, H2O2 HRP-luminol luminescence; inhibition, % (no concentration beside the values); hit rate 3.8% among 290,000;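 active means mean and each replicate at 75% or more; inconclusive means only one of the two met; inactive means neither met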;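 further: stock transfer was 7.5 nL into about 7.5 µL; 0% = neutral wells and 100% = wells with inactivated enzyme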
# The depositor's hits bear a star; ? = inconclusive; . = no result given; & = joins results of further samples.
SMILES,Vif TR-FRET,Calb FLC,HNF4A DNA FP,Beta2AR agonist,RanGTP-Impb inh,LANA-H2A inh,ALR H2O2 inh
CC(CNCc1ccc2c(c1)OCO2)NCc1ccc2c(c1)OCO2 (centres undefined),-3%,-38,-2.5,-11,2.3,-1.4,-14
CC(C)c1ccc(C2CC(=O)N3CN(C)CSC3=C2C#N)cc1 (centres undefined),1%,2,0.7,2,-2.3,-5.0,11
COCCN1C(=O)/C(=C/c2cc3c(cc2Br)OCO3)NC1=S,-4%,-1,3.3,-5,7.2,-3.1,23
CCOC(=O)N1CCN(C(=O)c2ccccc2NC(=O)c2ccc(F)cc2)CC1,.,2,-5.1,-6,3.0,0.0,-15
CC(C)(C)OC(=O)[C@H](Cc1ccccc1)NC(=O)c1[nH]cnc1C(=O)Nc1cccc(Cl)c1,17%,4,0.9,7,4.4,0.2,-9
O=C(CCC(=O)c1cccs1)NCc1cccc(C(F)(F)F)c1,-2%,10,3.0,-3,-0.2,2.5,-2
CCOC(=O)C1=NOC(COc2ccccc2C=O)C1 (centres undefined),2%,-1,-1.8,-2,-1.0,1.2,0
Cc1cc(C)c2nc(NC(=O)c3ccc4c(=O)n5c(nc4c3)CCCCC5)sc2c1,.,?,-2.5,24,0.2,0.3,-7
Cc1noc(C)c1COc1ccc(C(=O)OCC(=O)NCCN2C(=O)CSC2=O)cc1,-10%,-1,1.8,-11,-2.0,-4.8,-8
CCN1CCN(c2cc(C)c3cc(NC(=O)c4ccc(Br)o4)ccc3n2)CC1,0%,58,2.0,5,0.8,0.6,-4
Nc1nonc1-c1noc(CCCOc2ccc(Cl)cc2Cl)n1,3%,7,0.9,-7,-2.8,2.9,-4
CN(Cc1ccc(Cl)cc1)C(=O)COC(=O)CSc1ccc([N+](=O)[O-])cc1,-8%,.,-1.2,2,.,-11,-2
O=c1[nH]c2ccccc2nc1Cc1ccccc1,-2%,-7,-1.0,-16,1.5,0.7,-5
CCC(C)c1ccccc1O (centres undefined),.,.,-1.8,0,.,0.5,2
CCOC(=O)N1CCN(C(=O)c2ccc(S(=O)(=O)Nc3ccccc3)cc2)CC1,-4%,.,1.1,3,.,5.1,-3

# Arranged by molecular weight (rising): seven of the compounds above.
SMILES,Vif TR-FRET,Calb FLC,HNF4A DNA FP,Beta2AR agonist,RanGTP-Impb inh,LANA-H2A inh,ALR H2O2 inh
CCC(C)c1ccccc1O (centres undefined),.,.,-1.8,0,.,0.5,2
CCOC(=O)C1=NOC(COc2ccccc2C=O)C1 (centres undefined),2%,-1,-1.8,-2,-1.0,1.2,0
CC(C)c1ccc(C2CC(=O)N3CN(C)CSC3=C2C#N)cc1 (centres undefined),1%,2,0.7,2,-2.3,-5.0,11
COCCN1C(=O)/C(=C/c2cc3c(cc2Br)OCO3)NC1=S,-4%,-1,3.3,-5,7.2,-3.1,23
CCOC(=O)N1CCN(C(=O)c2ccccc2NC(=O)c2ccc(F)cc2)CC1,.,2,-5.1,-6,3.0,0.0,-15
Cc1cc(C)c2nc(NC(=O)c3ccc4c(=O)n5c(nc4c3)CCCCC5)sc2c1,.,?,-2.5,24,0.2,0.3,-7
CC(C)(C)OC(=O)[C@H](Cc1ccccc1)NC(=O)c1[nH]cnc1C(=O)Nc1cccc(Cl)c1,17%,4,0.9,7,4.4,0.2,-9

# Another view of 6 compounds above:
Compound | Vif TR-FRET | Calb FLC | HNF4A DNA FP | Beta2AR agonist | RanGTP-Impb inh | LANA-H2A inh | ALR H2O2 inh
CN(Cc1ccc(Cl)cc1)C(=O)COC(=O)CSc1ccc([N+](=O)[O-])cc1 | -8% | . | -1.2 | 2 | . | -11 | -2
COCCN1C(=O)/C(=C/c2cc3c(cc2Br)OCO3)NC1=S | -4% | -1 | 3.3 | -5 | 7.2 | -3.1 | 23
CCOC(=O)N1CCN(C(=O)c2ccc(S(=O)(=O)Nc3ccccc3)cc2)CC1 | -4% | . | 1.1 | 3 | . | 5.1 | -3
O=c1[nH]c2ccccc2nc1Cc1ccccc1 | -2% | -7 | -1.0 | -16 | 1.5 | 0.7 | -5
CC(C)(C)OC(=O)[C@H](Cc1ccccc1)NC(=O)c1[nH]cnc1C(=O)Nc1cccc(Cl)c1 | 17% | 4 | 0.9 | 7 | 4.4 | 0.2 | -9
Cc1noc(C)c1COc1ccc(C(=O)OCC(=O)NCCN2C(=O)CSC2=O)cc1 | -10% | -1 | 1.8 | -11 | -2.0 | -4.8 | -8

# Carrying on.
SMILES,Vif TR-FRET,Calb FLC,HNF4A DNA FP,Beta2AR agonist,RanGTP-Impb inh,LANA-H2A inh,ALR H2O2 inh
Cc1cccc2cc(COC(=O)c3ccccc3)c(=O)[nH]c12,-9%,3,0.8,-2,0.7,2.6,-1
Oc1c(C(c2cccs2)N2CCC3(CC2)OCCO3)sc2ncnn12 (centres undefined),9%,12,-3.1,-19,1.2,-0.5,-6
CC(Oc1ccccc1)C(=O)NN1Cc2ccccc2C1=N (centres undefined),-1%,-9,-4.4,-4,-0.7,-1.4,-8
Cc1ccc(S(=O)(=O)NC(=O)COc2ccccc2C)c(C)c1,.,15,1.9,8,-1.8,2.7,-1
COc1ccc(NC(=O)CN(C)S(=O)(=O)c2ccc(Br)s2)cc1,.,-6,0.1,5,2.3,-4.6,12
Cc1cccc(NC(=O)c2cc(NC(=O)c3ccco3)ccc2N2CCCCC2)c1,-11%&-14%,5,0.5,-5,-5.3,0.0,-9
CCOC(=O)c1cnn(-c2nc(-c3ccc(C)cc3)cs2)c1C(F)(F)F,-8%,-5,-0.6,0,7.4,3.1,1
O=C(NCc1ccc(OC(F)(F)F)cc1)c1ccc2c(c1)S(=O)(=O)c1ccccc1C2=O,.,2,-1.9,9,2.6,3.5,-3
NS(=O)(=O)c1ccc(CNC(=O)c2ccc(C(=O)c3ccccc3)cc2)cc1,-6%,.,-2.8,-17,.,4.6,0
CNS(=O)(=O)c1ccc2c(c1)NC(=O)C1CCCN21 (centres undefined),22%,-2,-1.0,21,-1.8,-1.3,-39
COc1ccc(CC(NC(C)=O)C(=O)NC2CCN(C(=O)Nc3ccccc3Cl)CC2)cc1OC (centres undefined),?,18,-3.5,2,0.0,-2.9,-16
Cc1cc(=O)n(-c2ccc3ccccc3n2)[nH]1,?,-6,-2.6,11,2.3,-5.1,9
Cc1ccc(-n2ncc(Cl)c2C(=O)NCc2ccccc2)cc1,-3%,11,2.8,-2,0.4,-1.0,-1
CC1CN(CC(O)COc2ccc(C(=O)c3ccccc3)cc2)CC(C)O1 (centres undefined),0%,-1,-0.7,-14,7.4,2.7,-14
O=C(Cn1c(=O)oc2cc(S(=O)(=O)N3CCCCC3)ccc21)N1CCc2ccccc2C1,0%,-5,4.0,2,-0.7,-3.0,-3
CCn1c2ccccc2c2n[nH]c(=S)nc21,-3%,5,-1.2,-10,4.9,1.8,31
COc1cc(/C=N\NC(=O)c2ccc(-c3ccccc3)cc2)cc(Br)c1O,2%,-2,1.9,13,-2.3,6.8,4
CCOC(=O)c1oc2ccccc2c1NC(=O)COc1ccc(F)cc1,-4%,-4,3.0,1,-1.1,-1.2,-5
CC1(C)CC(=O)C=C(NCCO)C1,-4%,8,1.6,2,1.0,-4.3,-4
C/C(=N\NC(=O)c1cccc(S(=O)(=O)Nc2ccc(C)cc2C)c1)c1ccncc1,-3%,.,-0.8,0,.,.,.
Cc1ccc(S(=O)(=O)Oc2ccccc2/C=N/NC(=O)c2nn(C)cc2[N+](=O)[O-])cc1,17%,3,2.1,-8,5.1,-2.3,-1
CCOC(=O)c1nnn(-c2nonc2N)c1-c1cccc2ccccc12,1%,3,-3.0,8,4.8,8.4,.
O=C1COc2ccc(C(=O)COC(=O)c3nc(Cl)ccc3Cl)cc2N1,-2%,.,2.8,2,.,.,.
CCOC(=O)c1c(C)[nH]c(C(=O)COc2ccc3c(c2)OCO3)c1C,5%,6,4.9,4,-1.6,5.9,-12
Cc1ccc(CCNC(=O)CN(C)S(=O)(=O)c2cnc[nH]2)cc1,.,-16,1.2,4,-0.9,0.0,-24
Cc1cc(=O)oc2cc(OCCc3ccccc3)ccc12,.,0,0.4,0,3.7,-6.9,-32
Cc1ccc(SCCC(=O)OCC(=O)Nc2ncc(Cl)cc2Cl)cc1,-1%,-5,1.8,-1,0.4,-9.1,-6
Cc1ccc2occ(CN3CCN(c4ccccc4)CC3)c(=O)c2c1,6%,19,-1.4,-2,-5.4,-6.8,73
CC(C)Oc1ccc(C(=O)NCCNC(=O)c2ccco2)cc1,.,19,2.9,10,4.1,3.6,-4
CCCCNC(=O)O[C@@H]1C[C@H]2CCC(=O)N3CC[C@@H](C1)[C@@H]23,.,-9,-3.6,-12,-2.4,3.9,-2
Brc1ccc(-c2csc3[n+]2CCCCC3)cc1,1%,13,0.5,2,?,-3.5,-15
CN(CC(=O)Nc1ccccc1Cl)C(=O)COC(=O)c1nc(Cl)ccc1Cl,3%,-7,0.5,-13,2.9,1.1,-3
CC(Oc1ccc(Cl)cc1Cl)C(=O)Nc1ccc2oc(-c3ccncc3)nc2c1 (centres undefined),-25%,-5,4.7,9,-2.4,0.5,-3
COc1cccc(NC(=O)Nc2ccccc2C(N)=O)c1,1%,-6,-0.6,-4,0.5,0.7,-3
NC(=O)CSc1nc2ccccc2n1-c1ccccc1,-6%,14,-1.4,-2,1.1,4.8,-7
O=C(NOCc1ccccc1)c1ccc([N+](=O)[O-])cc1,0%,.,5.0,-1,.,.,-7
O=C(NCc1cccs1)c1cccc(Nc2nc3ccc(Br)cc3[nH]2)c1,8%,32,2.1,-10,0.8,3.7,.
CCc1ccc(OCC(=O)OCC(=O)c2c(N)n(C)c(=O)n(C)c2=O)cc1,-3%,-19,-1.7,2,1.0,-2.0,0
O=C(Nc1ccc(O)cc1)c1ccc2c(c1)C(=O)N(Cc1ccco1)C2=O,.,-1,-1.0,2,2.1,-0.4,100*
NC(=O)c1cc(Br)cc2c3c([nH]c12)CCCC3,1%,4,-27,12,-1.5,3.6,2
Cc1ccccc1C(=O)O[C@H]1[C@H](Cc2ccccc2)NS(=O)(=O)[C@H]2CC3C=C[C@]12O3,.,.,-6.0,0,.,0.2,-3
Cc1cc2c(ncn2Cc2ccccc2)c(NS(C)(=O)=O)c1C,0%,-14,-1.1,-1,-0.1,0.6,.
COc1ccccc1C1C2=C(N=c3s/c(=C/c4cccc(OCC(=O)O)c4)c(=O)n31)c1ccccc1CC2 (centres undefined),18%,.,-0.5,11,.,-8.5,-45
Clc1cccc(OCCCCCN2CCOCC2)c1,.,-14,0.8,5,-0.6,2.5,1
O=C(CSCC(=O)N1CCCCC1)Nc1nc(-c2cccs2)cs1,-1%,-4,-4.5,-4,-1.1,-0.3,96*
